Ecoli rRNA inh – inhibits bacterial ribosomal RNA function over humanized ribosomes. E. coli WT GFP vs humanized-ribosome RFP mutants, fluorescence, 24 h; stronger effect = lower value; DMSO median 0, no signal -100. GFP signal change (wild-type ribosome), % (concentration not given with the values). actives 1.6% (n = 350,000);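 active means significant combined selectivity score with lowered wild-type GFP, culture density cut under 30%, mutant RFP and density less affected; inactive means any of these conditions unmet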; further: one replicate is shown; some compounds called inactive have numbers as strong as hits
FGF22 binding – shifts melting point of recombinant human FGF22; recombinant FGF22 thermal shift, SYPRO orange fluorescence; percent of sucrose octasulfate shift, DMSO zero; AID 651658; calls only at 9.99 µM; Q9HCT0; actives 1.5% (n = 340,000);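 active means melting point raised past a set limit in the mean and every replicate; inconclusive means no clear call; three in four hits are not shown here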
Target sequence (Q9HCT0 whole entry, looked up): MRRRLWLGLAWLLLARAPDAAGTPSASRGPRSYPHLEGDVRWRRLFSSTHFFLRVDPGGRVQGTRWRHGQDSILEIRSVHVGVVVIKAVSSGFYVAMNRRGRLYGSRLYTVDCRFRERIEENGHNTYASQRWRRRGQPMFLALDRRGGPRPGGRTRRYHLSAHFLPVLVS
AF4-AF9 inh – inhibitors of human MLL-AF4/AF9 interaction; inhibition, % at 10 µM; P42568; AlphaScreen, biotin-AF4 peptide binding to FLAG-AF9; actives 0.47% (n = 350,000);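 active means every replicate reaching a set inhibition limit, whatever the replicate mean, cut at about 25% in these data; inconclusive means mean inhibition reaches that limit but some replicates miss it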;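 further: 0% = plate neutral control median and 100% = total signal loss; the record names both 10 and 1 µM as test concentration; the first replicate is given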
Target sequence (P42568 whole entry, looked up): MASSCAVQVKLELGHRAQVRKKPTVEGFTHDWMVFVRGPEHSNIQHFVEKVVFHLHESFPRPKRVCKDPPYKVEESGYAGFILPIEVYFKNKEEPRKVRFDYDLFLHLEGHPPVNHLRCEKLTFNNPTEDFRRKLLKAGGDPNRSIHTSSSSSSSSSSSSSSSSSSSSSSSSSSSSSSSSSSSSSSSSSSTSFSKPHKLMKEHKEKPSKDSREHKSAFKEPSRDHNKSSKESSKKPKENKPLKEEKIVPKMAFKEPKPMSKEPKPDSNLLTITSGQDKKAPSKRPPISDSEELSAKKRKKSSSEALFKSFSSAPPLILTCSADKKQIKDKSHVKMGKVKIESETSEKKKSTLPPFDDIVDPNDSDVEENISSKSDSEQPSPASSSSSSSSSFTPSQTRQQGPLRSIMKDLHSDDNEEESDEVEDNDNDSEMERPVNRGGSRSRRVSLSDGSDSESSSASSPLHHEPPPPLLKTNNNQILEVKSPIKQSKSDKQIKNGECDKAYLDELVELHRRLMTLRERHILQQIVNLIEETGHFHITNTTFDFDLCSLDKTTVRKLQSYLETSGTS
Ecoli rRNA inh OD600 – also measured in Ecoli rRNA inh; calls as there; OD600 change, %; measured here: OD600 growth;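 optical density of the mix in the first replicate; 0 = DMSO median and -100 = no signal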
Ecoli rRNA inh RFP – second read-out of Ecoli rRNA inh, no call of its own (marks repeat the call); RFP signal change, %; measured here: RFP humanized mutant strains;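 first replicate; 0 = DMSO median and -100 = no signal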
Starred values were filed as active, the others as inactive; i = inactive; ? = inconclusive; & = joins results of further samples. This is a subset; count on the stated rates, not on these rows.

Under each structure: Ecoli rRNA inh	Ecoli rRNA inh OD600	Ecoli rRNA inh RFP	FGF22 binding	AF4-AF9 inh
- CCOC(=O)C1CCCN(C(=O)C2COc3ccccc3O2)C1 (stereo not given)
  1	1	-3.9	i	-16
- Cc1cccc(S(=O)(=O)NC(=O)C2(C)CCN2C(=O)C/C=C/c2ccccc2)c1 (stereo not given)
  -2	12	4.8	i	-7.5
- CC1(Cc2ccc(F)cc2)C(=O)Nc2ccc(-c3cccnc3)cc21 (stereo not given)
  -16	-28	-6.6	i	8.5
- CN(Cc1ccccc1)C(=O)c1ncn2c1C(=O)N(C)CC2
  9	7	0.2	i	0.5
- COc1ccccc1S(=O)(=O)N[C@@H]1CC[C@@H](CCn2cc(C3CC3)nn2)O[C@@H]1CO
  -3	-7	-1.6	i	1.6
- COc1cccc(Nc2nc(C(N)C3CCCCC3)cs2)n1 (stereo not given)
  -59	-79	-20	i	20
- Cc1ccc(S(=O)(=O)Nc2ccc3c(c2)C(=O)N([C@@H](C)CO)C[C@@H](C)[C@@H](CN(C)Cc2ccccc2)O3)cc1
  -1	-11	2.3	i	2.7
- CC(=O)N(C)C[C@H]1Oc2ncc(C#Cc3ccccn3)cc2C(=O)N([C@@H](C)CO)C[C@@H]1C
  6	16	0.8	i	-6.9
- CCOC(=O)N1CCN(S(=O)(=O)N2CCCC(C(=O)NCc3ccc(C)cc3)C2)CC1 (stereo not given)
  13	17	2.3	i	1.4
- COCC(=O)N(C)C[C@H]1Oc2cc(-c3cccnc3)ccc2S(=O)(=O)N([C@@H](C)CO)C[C@@H]1C
  2	-2	-1.0	i	4.9
- COc1ccc(NC(=O)N(C)C[C@@H]2OCCCC[C@@H](C)Oc3ccc(NS(=O)(=O)c4ccccc4)cc3C(=O)N([C@H](C)CO)C[C@H]2C)cc1
  0	5	1.3	i	2.6
- Cc1ccc(-c2nc3ccc(Cl)cn3c2Cc2cccc(F)c2)cc1
  -14	-17	-1.5	i	2.1
- C[C@@H]1CN([C@H](C)CO)C(=O)c2cc(-c3cccc(C#N)c3)cnc2O[C@@H]1CN(C)C(=O)C1CC1
  -1	4	-0.8	i	-0.7
- C[C@@H]1CN([C@@H](C)CO)C(=O)c2cc(-c3cccnc3)cnc2O[C@H]1CN(C)S(C)(=O)=O
  -1	5	0.0	i	-0.7
- CCC(=O)N1[C@H](CO)[C@@H]2c3ccccc3N(S(=O)(=O)c3ccccc3F)C[C@@H]21
  0	8	-1.4	i	0.8
- CC(C)C#Cc1cnc2c(c1)C(=O)N([C@H](C)CO)C[C@@H](C)[C@H](CN(C)C(=O)Nc1ccccc1)O2
  0	5	-3.0	i	-2.5
- Cc1ccc(NS(=O)(=O)c2ccccc2)c(NS(=O)(=O)c2ccccc2)c1
  -61	-76	-23	i	-2.2
- COc1ccc2c3c(n(C)c2c1)[C@@H](CO)N(Cc1cc(F)ccc1F)CC31CN(C(=O)C2CC2)C1
  -1	-11	-1.8	i	-4.3
- CNc1cccc(-c2cc(OC)c(OC)c(OC)c2)n1
  -2	0	-3.3	i	-0.4
- C[C@@H]1CCCCO[C@@H](CN(C)S(=O)(=O)c2cccs2)[C@H](C)CN([C@@H](C)CO)C(=O)c2cc(NC(=O)Nc3ccccc3)ccc2O1
  -3	-4	-0.1	i	-0.3
- N#C[C@@H]1[C@@H](c2ccc(-c3cncnc3)cc2)[C@H](CO)N1C(=O)C1CCOCC1
  1	-1	-3.0	i	-2.0
- COc1ccc(Cn2cc(CN3CC(N4CCCC4)CS3(=O)=O)nn2)cc1 (stereo not given)
  14	9	5.4	i	1.3
- CCC(=O)N(C)C[C@@H]1Oc2cc(C#C[C@H](C)O)ccc2S(=O)(=O)N([C@H](C)CO)C[C@@H]1C
  -1	1	-3.2	i	-1.5
- C/C=C/c1ccc([C@@H]2[C@@H](CO)N(C(C)=O)C23CN(C(=O)NC2CCCCC2)C3)cc1
  0	-3	-1.2	i	-0.7
- C[C@@H]1CN([C@H](C)CO)C(=O)c2cc(N(C)C)ccc2O[C@H]1CN(C)Cc1ccc(-c2ccccc2)cc1
  -28	-66	12	i	50*
- C[C@H](CO)N1C[C@H](C)[C@@H](CN(C)S(=O)(=O)c2ccc(-n3cccn3)cc2)OCc2cnnn2CCCC1=O
  10&-2	11&-1	-0.8&-2.5	i	-3.5&2.5
- C=CCNc1ncnc2c1ncn2[C@H]1CN(Cc2ccc(-c3ccccc3)cc2)C[C@@H](CO)O1
  -47	-73	-6.0	i	12
- C[C@@H]1CN([C@H](C)CO)C(=O)c2cccc(NC(=O)Nc3ccc(C(F)(F)F)cc3)c2O[C@H]1CN(C)S(=O)(=O)c1ccc(Cl)cc1
  1	5	-1.3	i	0.1
- O=C(c1cccc(NS(=O)(=O)c2ccc(F)c(F)c2)c1)N1CCCCC1
  4	4	-1.1	i	0.2
- Cc1noc(C)c1S(=O)(=O)Nc1ccc2c(c1)CC(=O)N([C@H](C)CO)C[C@H](C)[C@H](CN(C)C(=O)Nc1ccc(C(F)(F)F)cc1)O2
  6	-8	-0.3	i	-0.1
- CN1C(=O)c2cc(NC(=O)c3ccccc3Cl)ccc2OC[C@@H]2O[C@H](CC(=O)O)CC[C@@H]21
  1	3	-1.7	i	-4.6
- C[C@@H]1CN([C@H](C)CO)C(=O)c2cccc(NC(=O)CCCCCC(=O)Nc3ccccc3N)c2O[C@@H]1CN(C)Cc1ccccc1
  1	11	-1.7	i	-0.5
- CCC(=O)Nc1ccc2c(c1)C(=O)N(C)C[C@H](OC)[C@H](C)CN(C(=O)c1ccccn1)[C@H](C)CO2
  4	1	1.8	i	?
- CN1CCN(C(=O)C[C@@H]2C[C@H]3c4cc(NC(=O)C5CCC5)ccc4O[C@H]3[C@H](CO)O2)CC1
  4	8	-0.4	i	-0.8
- N#C[C@H]1[C@@H](c2ccc(C3=CCCC3)cc2)[C@@H](CO)N1C(=O)C1CCOCC1
  2	5	-4.5	i	-3.4
- Cc1noc(C)c1NC(=O)N(C)C[C@@H]1Oc2c(NS(C)(=O)=O)cccc2C(=O)N([C@@H](C)CO)C[C@H]1C
  -2	5	-3.9	i	-14
- C[C@@H]1CN([C@@H](C)CO)C(=O)Cc2cc(NC(=O)C3CCCCC3)ccc2O[C@H]1CN(C)Cc1ccccc1
  -1	-4	4.1	i	7.5
- CC(C)CN1CCC1(C)C(=O)Nc1ccc(OC(F)F)cc1 (stereo not given)
  4	8	-2.1	i	-6.4
- Cc1ccc(S(=O)(=O)Nc2ccc3c(c2)CC(=O)N([C@H](C)CO)C[C@H](C)[C@H](CN(C)S(=O)(=O)c2cn(C)cn2)O3)cc1
  3	4	-0.2	i	1.0
- CN(C)C(=O)C[C@H]1CC[C@H](NC(=O)NC2CCCCC2)[C@H](CO)O1
  7	5	0.1	i	-2.3
- COc1ccc(S(=O)(=O)Nc2ccc3c(c2)C(=O)N([C@@H](C)CO)C[C@@H](C)[C@H](CN(C)Cc2ccc(C(=O)O)cc2)OCCCC[C@H](C)O3)cc1
  -4	-8	-3.8	i	-10
- CCCNC(=O)C1(C)CCN1C(=O)c1ccccc1CCc1ccccc1 (stereo not given)
  -6	-20	0.4	i	-6.2
- COc1ccc(S(=O)(=O)N2CCC3CC2c2c(-c4ccc(C(F)(F)F)cc4)cccc23)cc1 (stereo not given)
  5	3	-4.3	i	-2.2
- COc1ccc2c3c([nH]c2c1)[C@@H](CO)N(C(=O)C1CCCCC1)CC31CCN(C(=O)NC(C)C)CC1
  3	3	1.9	i	-1.7
- C[C@H](CO)N1C[C@H](C)[C@H](CN(C)S(=O)(=O)c2ccccc2F)Oc2ncc(C#Cc3ccccc3)cc2C1=O
  1	2	-1.4	i	-5.5
- C[C@@H]1CN([C@@H](C)CO)C(=O)c2cc(C#Cc3cccnc3)cnc2O[C@@H]1CN(C)S(=O)(=O)c1ccccc1F
  -2	-1	-0.9	i	-3.5
- C[C@@H]1CCCCO[C@H](CN(C)C)[C@@H](C)CN([C@H](C)CO)C(=O)c2cc(NC(=O)C3CCCCC3)ccc2O1
  2	0	0.4	i	-3.5
- C[C@@H]1CN([C@H](C)CO)C(=O)c2cc(N(C)C)ccc2O[C@@H](C)CCCCO[C@@H]1CN(C)C(=O)Cc1ccccc1
  -1	6	0.5	i	0.0
- CCS(=O)(=O)N[C@@H]1CC[C@@H](CC(=O)Nc2ccc(-c3ccccc3)cc2)O[C@@H]1CO
  -3	-8	2.8	i	-12
- CN1C(=O)c2cc(NC(=O)c3cscn3)ccc2OC[C@@H]2O[C@@H](CC(=O)N3CCOCC3)CC[C@@H]21
  1	2	-0.7	i	0.3
- C[C@@H]1CCCCO[C@H](CN(C)C(=O)C2CCCCC2)[C@@H](C)CN([C@@H](C)CO)C(=O)c2cc(NS(=O)(=O)c3ccc(F)cc3)ccc2O1
  -6	-7	1.4	i	4.7
- CC(C)NC(=O)Nc1ccc2c(c1)C(=O)N([C@@H](C)CO)C[C@H](C)[C@H](CN(C)C)OCCCC[C@H](C)O2
  1	1	-0.7	i	-3.3
- O=S(=O)(Cc1ccccc1)NCC[C@H]1CC[C@H](NS(=O)(=O)c2ccc(F)cc2)[C@H](CO)O1
  -6	-10	2.8	i	1.8
- CC(=O)N1[C@H](CO)[C@H](c2ccccc2)C12CN(C(=O)c1cnccn1)C2
  2	10	-2.8	i	-1.9
- O=C(Cc1ccncc1)NCC[C@H]1CC[C@@H](NC(=O)C2CCC2)[C@@H](CO)O1
  0	0	-1.1	i	-2.1
- CCNC(=O)C[C@@H]1CC[C@H](NC(=O)C2CC2)[C@H](CO)O1
  4	12	0.5	i	-2.6
- C[C@@H]1CN([C@@H](C)CO)S(=O)(=O)c2ccc(-c3ccncc3)cc2O[C@@H]1CN(C)C
  2	20	0.7	i	3.8
- CCN(CC(=O)Nc1ccc(NC(C)=O)cc1)C(=O)c1c(C)nn(Cc2ccc(C)cc2)c1Cl
  -1	1	1.0	i	0.5
- Cc1noc(C)c1NC(=O)N(C)C[C@H]1Oc2c(NC(=O)C3CCOCC3)cccc2C(=O)N([C@@H](C)CO)C[C@@H]1C
  4	1	-2.1	i	-4.0
- COc1ccc2c3c([nH]c2c1)[C@@H](CO)N(C(C)=O)CC31CCN(C(=O)c2cccc(F)c2)CC1
  -3	2	1.6	i	0.3

Going on with the list:
Under each structure: Ecoli rRNA inh	Ecoli rRNA inh OD600	Ecoli rRNA inh RFP	FGF22 binding	AF4-AF9 inh
- C[C@@H](NC(=O)C[C@H]1CC[C@@H]2[C@H](COC[C@@H](O)CN2Cc2cc(F)ccc2F)O1)c1ccccc1
  1	4	-1.8	i	-0.2
- COc1ccc(CN(C)CCCn2cnc3c(OC)ncnc32)cc1OC
  26	20	2.5	i	-1.6
- C[C@H]1CN([C@@H](C)CO)C(=O)Cc2cc(NC(=O)CCN3CCOCC3)ccc2O[C@@H]1CN(C)Cc1ccccc1
  4	13	-1.6	i	2.0
- Cc1ccc(S(=O)(=O)Nc2ccc3c(c2)C(=O)N([C@H](C)CO)C[C@H](C)[C@H](CN(C)S(=O)(=O)c2ccc(F)cc2)O3)cc1
  -3	-11	7.4	i	-0.9
- CCc1nnc(NC(=O)Cc2ccc(OC)c(S(=O)(=O)N3CCOCC3)c2)s1
  4	17	2.9	i	-1.5
- CCS(=O)(=O)Nc1ccc2c(c1)C(=O)N(C)[C@@H]1CC[C@H](CC(=O)NCc3ccc(OC)cc3)O[C@@H]1CO2
  0	8	0.4	i	-2.5
- Cc1noc(C)c1NC(=O)Nc1cccc2c1O[C@@H](CN(C)Cc1ccncc1)[C@@H](C)CN([C@@H](C)CO)C2=O
  1	2	-1.2	i	-2.0
- CO[C@H]1CN(C)C(=O)c2cccc(C#N)c2OCC[C@@H]2CC[C@@H](OC)[C@@H](CN(C)C(=O)[C@@H]1C)O2
  2	2	-4.0	i	2.2
- CCC(=O)N(C)C[C@H]1Oc2cc(-c3cccnc3)ccc2S(=O)(=O)N([C@H](C)CO)C[C@H]1C
  2&-2	-8&-1	-4.4&-3.1	i	-6.6&1.2

Structures from the list above that have two or more sulfur atoms (6):
Under each structure: Ecoli rRNA inh	Ecoli rRNA inh OD600	Ecoli rRNA inh RFP	FGF22 binding	AF4-AF9 inh
- Cc1ccc(NS(=O)(=O)c2ccccc2)c(NS(=O)(=O)c2ccccc2)c1
  -61	-76	-23	i	-2.2
- C[C@@H]1CCCCO[C@@H](CN(C)S(=O)(=O)c2cccs2)[C@H](C)CN([C@@H](C)CO)C(=O)c2cc(NC(=O)Nc3ccccc3)ccc2O1
  -3	-4	-0.1	i	-0.3
- Cc1ccc(S(=O)(=O)Nc2ccc3c(c2)CC(=O)N([C@H](C)CO)C[C@H](C)[C@H](CN(C)S(=O)(=O)c2cn(C)cn2)O3)cc1
  3	4	-0.2	i	1.0
- O=S(=O)(Cc1ccccc1)NCC[C@H]1CC[C@H](NS(=O)(=O)c2ccc(F)cc2)[C@H](CO)O1
  -6	-10	2.8	i	1.8
- Cc1ccc(S(=O)(=O)Nc2ccc3c(c2)C(=O)N([C@H](C)CO)C[C@H](C)[C@H](CN(C)S(=O)(=O)c2ccc(F)cc2)O3)cc1
  -3	-11	7.4	i	-0.9
- CCc1nnc(NC(=O)Cc2ccc(OC)c(S(=O)(=O)N3CCOCC3)c2)s1
  4	17	2.9	i	-1.5

Assay outcomes: PubChem, Broad Institute
